miR-21 reporter: miR-21 reporter, rising signal | AID 2288 | HeLa miR-21 FLuc reporter, luciferase, 48 h | 340,000 tested, under 10 active | Potency, µM (series often up to 38.3 µM), for the others: at the highest dose reporter change, positive = more light; active = well fitted rising curve with a large enough effect; inconclusive = small, poorly fitted or top-dose-only effect; inactive = no such curve, though single readings can be large or run the other way;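 note: % of control where 0% means no effect; miR-21 action dims this reporter so a rising signal means less miR-21 action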
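Luminescence from a firefly luciferase reporter carrying a miR-21 binding site downstream, stably expressed under a CMV promoter in HeLa cells that make miR-21 endogenously, reports miRNA modulation after 48 h compound exposure up to approximately 40uM final.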
Rango complex inh: Rango-importin beta binding inhibition. Q14974. Rango CFP/YFP FRET sensor + importin beta, 45 min. Potency, µM (highest dose often 92.2 µM), for inactives: at the highest dose inhibition of complex formation. hit rate 0.031% among 340,000; active = rising FRET ratio curve, often small or poorly fitted; inconclusive = mostly compound fluorescence or quenching in the first reads; inactive = flat curves in all reads;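 note: potency is the fitted concentration of half-maximal effect; 0% = DMSO wells and 100% = buffer wells lacking importin beta; nearly all actives have a fitted effect of over 15% in size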
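FRET biosensor (snurportin 1 IBB flanked by EYFP and cerulean), 50 nM, with compound 5 min, then 0.125 microM importin beta in PBS, 1 mM DTT, 0.02% Tween-20, 0.1% BSA. CFP/YFP ratio read after 45 min at room temperature; pre-read flags interference.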
GLA inh pH 4.5: inhibitors of human alpha-galactosidase A at pH 4.5. activity change, negative = inhibition, % at 105 µM. P06280. 230,000 tested, under 10 active. purified enzyme, 4-MU-alpha-Gal fluorescence, pH 4.5. AID 1467; inconclusive = small, poorly fitted or top-dose-only inhibition, or a rising curve; inactive = flat fitted curve, though single readings scatter; no compound was filed as active;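 note: 0% = full activity with enzyme and -100% = basal without enzyme; dose as in the result columns while the protocol names 77 µM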
Target sequence (P06280 whole entry, looked up): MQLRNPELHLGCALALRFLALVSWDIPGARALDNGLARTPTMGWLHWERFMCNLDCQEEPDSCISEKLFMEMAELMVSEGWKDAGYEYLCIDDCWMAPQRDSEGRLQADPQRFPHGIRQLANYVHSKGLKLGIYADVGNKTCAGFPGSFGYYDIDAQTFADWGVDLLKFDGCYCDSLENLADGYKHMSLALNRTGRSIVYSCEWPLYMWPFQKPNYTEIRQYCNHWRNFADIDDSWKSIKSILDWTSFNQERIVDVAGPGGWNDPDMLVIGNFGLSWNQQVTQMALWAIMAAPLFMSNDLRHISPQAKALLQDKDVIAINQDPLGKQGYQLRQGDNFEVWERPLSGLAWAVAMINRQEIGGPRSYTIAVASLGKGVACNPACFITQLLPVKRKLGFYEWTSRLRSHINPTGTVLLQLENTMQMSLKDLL
Rango release inh: prevents RanGTP from dissociating the Rango-importin beta complex | hit rate 0.071% among 340,000 | Potency, µM (doses to about 46.1 µM), without a hit: top-dose activity change, negative = inhibition | Biochemical FRET Rango-importin beta, RanGTP-induced dissociation; active means falling FRET ratio curve, often poorly fitted, with flat reads before Ran was added; inconclusive means other falling curves, or compound fluorescence or quenching; inactive means flat or rising ratio curve;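 note: potency is the fitted concentration of half-maximal effect; % of control where 0% means no effect; nearly all actives have a fitted effect of over 45% in size; -100% = wells without RanGTP and RCC1; the record marks most hits as doubtful in a second field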
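Compounds preincubate 5 min with complex of recombinant Rango and importin beta in PBS with 1 mM DTT. Ran (0.6 uM) loaded with 2 mM GTP plus 0.2 uM RCC1 starts dissociation; FRET is recorded 45 min later.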
* marks the source's active call; other numbers are inactive results; ? = inconclusive; . = no result given; & = joins results of further samples. A portion of the library; the hit share may differ from the screen's.

SMILES	miR-21 reporter	Rango complex inh	GLA inh pH 4.5	Rango release inh
O=C(NC1CCCCC1)C(Cc1ccccc1)N1C(=O)C2C3CCC(C3)C2C1=O (centres undefined)	-16%	-4.0%	-13	22%
O=C(CCN1C(=O)COc2ccccc21)N1CCN(c2ccccn2)CC1	-8%	-8.2%	-4	-3%
O=C(COc1ccc(S(=O)(=O)N2CCCC2)cc1)NCc1ccco1	-1%	-1.2%	5	-7%
CCOC(=O)c1cnn(-c2nc(-c3ccccc3F)cs2)c1C(F)(F)F	-24%	-2.3%	-24	3%
COC(=O)C(C)Sc1ccc2nnc(-c3ccc(F)cc3)n2n1 (centres undefined)	0%	3.8%	-2	-2%
CC(=O)Nc1ccc(NC(=S)NC(=O)/C=C/c2ccco2)cc1	15%	?	.	-22%
O=C(N/N=C/c1ccccc1[N+](=O)[O-])c1ccc(COc2ccccc2-c2ccccc2)cc1	-10%	-0.1%	-1	3%
O=C(NCCCN1CCCC1=O)c1ccc2c(c1)OCO2	-12%	-1.0%	0	-22%
Cc1cccc(-n2c(N)cc(=O)nc2SCC(=O)NC2CCCCC2)c1	-8%	?	-26	-11%
Cc1ccccc1OCc1nc2ccccc2c(=O)n1/N=C/c1ccco1	-60%	-1.4%	-3	19%
CC(C)(C)c1cc[n+](C2=C([O-])c3ccccc3C(=O)/C2=N\S(=O)(=O)c2ccccc2)cc1	16%	-3.8%	2	2%
CCCCNC(=O)C1CCC(=O)N1CCc1ccccc1 (centres undefined)	0%	0.3%	.	-3%
CCCCc1c(O)nc(SCC(=O)c2ccccc2)[nH]c1=O	-4%	-1.5%	2	-14%
COc1cc2c(cc1OC)C(COc1cccc(C(F)(F)F)c1)NCC2 (centres undefined)	-13%	3.2%	.	9%
CCOC(=O)c1[nH]c2ccc(F)cc2c1NC(=O)CCN1CCSCC1	-3%	2.8%	1	4%
CCOC(=O)c1c(NC(=O)Cc2cccs2)sc(C(=O)NC2CCCCC2)c1C	-3%	-0.8%	-3	5%
CNC(=O)c1nc(C)n(-c2ccc([N+](=O)[O-])cc2)n1	-1%	1.4%	-1	5%
CCOC(=O)C1CCN(C(=O)c2cc3c(OC)c(OC)c(OC)cc3[nH]2)CC1	6%	-2.2%	.	-8%
O=C(CSc1ccccn1)Nc1ccccc1F	-37%	-0.7%	-1	-12%
CCO[C@@H]1OC(C(=O)NCc2ccccc2)=C[C@H](c2ccc(C(F)(F)F)cc2)[C@H]1CCCO	12%	1.8%	-22	2%
O=C1/C(=C/c2c[nH]c3ccccc23)CCC/C1=C\c1c[nH]c2ccccc12	0%	?	0	?
CCOC(=O)/C(=C\c1cccnc1)C(=O)c1cc(C(C)=O)c(Nc2ccccc2)s1	?	?	-23	?
Cc1c(NC(=O)COC(=O)C2CC3C=CC2C3)c(=O)n(-c2ccccc2)n1C (centres undefined)	0%	0.7%	-3	-4%
CCSc1nnc(NC(=O)c2cccc3ccccc23)s1	-16%	3.3%	-6	-14%
COc1cccc(Oc2nc(-c3ccncc3)nc3ccccc23)c1	-1%	2.8%	-7	-3%
Cc1cccc(N(C(=O)C(F)(F)F)C(C(=O)NC2CCCCC2)c2cccs2)c1 (centres undefined)	-15%	1.3%	-8	-4%
CCc1ccccc1N(CC(=O)NCC1CCCO1)C(=O)CCC(=O)Nc1cc(C)on1 (centres undefined)	-2%	3.1%	.	13%
CC(C)n1c(NCc2ccccc2O)nc2ccccc21	0%	-0.5%	.	-8%
O=C(O)c1cccc(NS(=O)(=O)c2ccc(C3CCCCC3)cc2)c1	-13%	-2.3%	0	21%
O=C(N/N=C/c1c[nH]c2ccccc12)c1cccc(O)c1	-33%	-0.4%	.	-2%
CC(C)CNC(=O)CN1C(=O)NC2(CCc3ccccc32)C1=O (centres undefined)	7%	-6.3%	.	0%
O=C(CN1C(=O)NC2(CCCCCC2)C1=O)c1ccc(F)cc1	.	0.2%	.	21%
CC1=NN(c2ccccc2)C(=O)/C1=C/C=C/c1ccc(N(C)C)cc1	-3%	-0.8%	-3	0%
CCN1C(=O)[C@H]2[C@H]3CN=C(SCc4ccc(C)cc4)N3[C@@](C)(C(=O)OC)[C@H]2C1=O	.	1.1%	.	-9%
Cc1[nH]c2ccccc2c1C(=O)NS(=O)(=O)Nc1ccc(Cl)cc1	-4%	-4.6%	-8	9%
COc1ccc(N2CCN(c3n[nH]c(N)n3)CC2)cc1	0%	-0.9%	-1	?

Ordered by count of non-hydrogen atoms (rising): part of the list above.
SMILES	miR-21 reporter	Rango complex inh	GLA inh pH 4.5	Rango release inh
COc1ccc(N2CCN(c3n[nH]c(N)n3)CC2)cc1	0%	-0.9%	-1	?
O=C(N/N=C/c1c[nH]c2ccccc12)c1cccc(O)c1	-33%	-0.4%	.	-2%
CC(C)CNC(=O)CN1C(=O)NC2(CCc3ccccc32)C1=O (centres undefined)	7%	-6.3%	.	0%
CC1=NN(c2ccccc2)C(=O)/C1=C/C=C/c1ccc(N(C)C)cc1	-3%	-0.8%	-3	0%
Cc1cccc(N(C(=O)C(F)(F)F)C(C(=O)NC2CCCCC2)c2cccs2)c1 (centres undefined)	-15%	1.3%	-8	-4%
CCc1ccccc1N(CC(=O)NCC1CCCO1)C(=O)CCC(=O)Nc1cc(C)on1 (centres undefined)	-2%	3.1%	.	13%

Following part:
SMILES	miR-21 reporter	Rango complex inh	GLA inh pH 4.5	Rango release inh
COc1ccc(C(=O)N2CC3(CC(c4cccc([N+](=O)[O-])c4)=NO3)C[C@H]2C(=O)NCC(N)=O)cc1 (some centres undefined)	-1%	-2.4%	-4	-8%
CSc1nsc(SC)c1NC(=O)OCCc1ccccn1	-5%	6.9%	3	-21%
COc1ccc(CCNC(=O)c2nnn(-c3cc(C)cc(C)c3)c2N)cc1OC	7%	0.8%	-20	-4%
Cc1noc(C)c1COc1cccc(C(=O)Nc2cccnc2)c1	-3%	-0.9%	8	2%
Cc1c(NC(=O)c2cccc(NC(=O)COc3ccccc3C#N)c2)c(=O)n(-c2ccccc2)n1C	.	6.0%	.	2%
COCCn1c(SCC(=O)NC(=O)Cc2ccccc2)nc2ccccc2c1=O	.	-3.2%	.	?
CN1CCC(OC(c2ccccc2)c2ccc(Cl)cc2)C1 (centres undefined)	.	4.3%	.	-15%
Nn1cc(-c2ccccc2)nc1SCC(=O)NC1CCS(=O)(=O)C1 (centres undefined)	-7%	?	2	-4%
CCCc1cc(C(=O)O)c2ccccc2n1	2%	-6.3%	-5	0%
CCCCc1nc(N2CCN(C(=O)c3ccco3)CC2)c(C#N)c2c1CCCC2	5%	1.5%	.	-14%
CCN1CC(CN(C)Cc2nc(-c3ccc(C(F)(F)F)cc3)oc2C)CC1=O (centres undefined)	-2%	-0.2%	0	23%
CCCSc1nnc(C(C)C)n1N	0%	-2.1%	3	19%
O=C(CCC(=O)Nc1cccc(C(F)(F)F)c1)NCC1CCCO1 (centres undefined)	5%	-1.2%	.	12%
CCOC(=O)N1CCN(C/C(Cl)=C/c2ccccc2)CC1	-20%	2.6%	.	7%
Fc1ccccc1CN1CCC(Cc2ccccc2)CC1	13%	4.1%	.	6%
Cc1nc([N+](=O)[O-])c(C(=O)OCc2ccccc2)n1C	-25%	0.4%	0	6%
CC(NC(=O)c1cc([N+](=O)[O-])cc([N+](=O)[O-])c1)C1CC2CCC1C2 (centres undefined)	9%	-0.1%	.	51%
CCOC(=O)C1(Cc2cccc(Cl)c2)CCCN(C(=O)c2cc(CC)on2)C1 (centres undefined)	-9%	3.7%	.	-1%
CCC1CCCCN1CCN1C(=O)C2C(C(=O)Nc3cccc(OC)c3)C3C=CC2(O3)C1C(=O)NC1CCCCC1 (centres undefined)	-2%	2.2%	.	-19%
O=C(Nc1ccc2nc3n(c(=O)c2c1)CCCC3)c1ccccc1[N+](=O)[O-]	-17%	?	9	7%
O=C(Oc1ccc(Br)cc1)c1cncc(Br)c1	0%	1.8%	-2	10%
COC(=O)c1[nH]c2cc(OC)ccc2c1NC(=O)CCN1CCCC(C)(C)C1	-1%	6.2%	-5	-9%
O=C(COc1ccccc1)Nc1c2c(nn1-c1ccccc1)CS(=O)C2 (centres undefined)	-4%	5.8%	.	13%
COc1c(C)cc(C(=O)C2CCCN(C(=O)CCCn3cncn3)C2)cc1C (centres undefined)	4%	-2.2%	-2	8%
N#C/C(=C(/O)c1ccco1)c1nc2ccccc2s1	-35%&-36%	-3.5%&-0.7%	-10&-2	?
COc1ccc(N(CC(=O)N2CCN(c3ccccc3F)CC2)S(=O)(=O)c2c(C)noc2C)cc1	-3%&0%	8.9%	.	-1%
CC(C)CCNC(=O)CNC(=S)N(Cc1ccccc1)Cc1cccnc1	-7%	0.2%	-8	-1%
CC(=O)c1ccc(NC(=O)CSc2nc(C3CC3)nc3ccccc23)cc1	-3%	-0.3%	.	6%
O=C1C2C3C=CC(C2C(=O)N1CCCO)C1C2C(=O)N(CCCO)C(=O)C2C31 (centres undefined)	0%	-0.8%	2	1%
O=C(Cn1c(=O)oc2cc(S(=O)(=O)N3CCOCC3)ccc21)N1CCc2ccccc2C1	2%	-0.6%	0	-3%
COc1cccc(/C=N/NC(=O)CN2CC(c3ccccc3)CC2=O)c1O (centres undefined)	20%	-4.0%	-1	-20%
Cc1cc(N2CCOCC2)nc2ccc(NC(=O)CCC(=O)N3CCN(c4ccccc4F)CC3)cc12	-34%	-9.2%	.	-6%
COc1ccccc1C(=O)NNC(=S)NC(=O)c1sc2ccccc2c1Cl	-17%	-0.5%	-23	12%
CC(OC(=O)Nc1cccc(Cl)c1)C(=O)OC1CCCCC1 (centres undefined)	.	3.9%	.	-26%
Cc1ccc(S(=O)(=O)N2CCOCC2)cc1NC(=O)CN1C(=O)CN(C)C1=O	.	1.3%	.	10%
O=C(Nc1ccccc1N1CCN(C(=O)c2ccccc2)CC1)c1cc2ccccc2o1	1%	-3.9%	-11	1%
O=C(NCc1ccccc1)c1ccc(=O)oc1	-11%	-0.6%	5	14%
CCN(CC)C(=O)c1csc(Nc2ccc(C)cc2)n1	-21%	-1.4%	-4	-20%
Cc1ccc(NC(=O)CCc2c(C)nc3ncnn3c2C)nc1	1%	-1.6%	-1	-7%
O=C(CNC(=S)N(Cc1ccccc1Cl)C1CCCC1)NCCCN1CCOCC1	1%	-1.4%	-17	-3%
O=C(c1ccc(Cl)c([N+](=O)[O-])c1)N(Cc1ccc(Cl)cc1)C1CCS(=O)(=O)C1 (centres undefined)	2%	-2.6%	-21	13%
Cc1nc2ccc(C(=O)N3CCCC(CO)(Cc4ccc(F)cc4F)C3)cc2nc1C (centres undefined)	-1%	-3.3%	.	-9%
CCN(CC)S(=O)(=O)c1ccc(OC)c(NC(=O)Cc2cccs2)c1	-9%	-2.4%	-4	-1%
CC(=O)n1nc(-c2ccccc2)cc1-c1ccccc1	.	0.1%	.	-10%
Cc1[nH]c(=O)[nH]c(=O)c1S(=O)(=O)N1CCC(C(=O)N2CCN(Cc3ccccc3)CC2)CC1	-1%	2.1%	4	-7%
C=CCN=c1sc(C(=O)OC)cc(=O)n1CC=C	-4%	0.4%	-11	0%
c1ccc(COc2ccc(OCCN3CCCCC3)cc2)cc1	-55%	0.4%	2	25%
COc1ccc(CCNC(=O)c2nnc(Cc3c(F)cccc3Cl)o2)cc1OC	-3%	-0.8%	-3	-2%
Cc1ccc(OCCCC(=O)NCc2ccco2)cc1	-7%	4.1%	-21	2%
CC(C)N(C(C)C)S(=O)(=O)c1ccc(NC(=O)c2cnccn2)cc1	-10%	-0.2%	.	-1%
COc1cccc(NC(=S)/C(=C(\[O-])c2ccc(OC(F)F)cc2)[n+]2ccccc2)c1	-37%	-1.1%	5	16%
O=C(Nc1cccc(Cl)c1N1CCOCC1)c1ccc2c(c1)OCCO2	-24%	2.6%	8	-10%
O=C1Nc2ccccc2C12OCCCO2	-3%	-1.1%	8	-8%
CCOC(=O)NC1c2ccccc2Oc2ccccc21	2%	1.2%	13	-2%
CCCc1ccc(OCCNC(=O)c2ccccc2Br)cc1	-14%	-0.3%	.	-1%

Compound activity as filed in PubChem BioAssay.
